# Ba CapD inh: CapD enzyme inhibition; purified CapD enzyme, fluorescence intensity read-out; active compounds read low; some hits fall short of the stated cut; z-score (test concentration not listed); actives 0.23% (n = 140,000); AID 492967;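 active = z-score under -4 in either of two replicates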;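 note: stock transfer was 100 nL into about 40 µL; score is relative to mean and spread of the plate; one replicate is shown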
# AID504770: growth inhibitors of E. coli YBA685 in a screen for V. cholerae RctB (chromosome II replication) inhibitors; E. coli YBA685 rctB-dependent plasmid, OD600 growth, 3 h; active compounds read low; z-score (no concentration beside the values); actives 0.27% (n = 130,000);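 active = z-score under -2 on both plates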;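 note: wells of about 30 µL received 100 nL stock; score is relative to mean and SD of the test wells; the first replicate is given; strong numbers were not always called active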
# * = called active by the depositor; i = inactive; · = no result given. Random draw from the library; any-hit rate near 0.37%.
# Sample of the layout (2 entries):
Compound,Ba CapD inh,AID504770
COc1ccc(-c2cc(C(=O)Nc3ccccc3C(N)=O)c3ccccc3n2)cc1OC,0.51,·
CC(c1ccccc1)n1c(SC(F)F)nc2ccccc2c1=O (configuration not stated),·,2.1

# The whole of this part, from the first entry:
Compound,Ba CapD inh,AID504770
COc1ccc(-c2cc(C(=O)Nc3ccccc3C(N)=O)c3ccccc3n2)cc1OC,0.51,·
CC(c1ccccc1)n1c(SC(F)F)nc2ccccc2c1=O (configuration not stated),·,2.1
Oc1ccccc1C=Nc1ccccc1O,-0.29,-0.4
CCN(CC)Cc1ccc(C(=O)O)cc1,0.17,-1.05
CCN1CCCC1CNC(=O)c1nnc(Cc2cccc(F)c2)o1 (configuration not stated),0.945,-1.6
O=C(CCCc1c[nH]c2ccccc12)NCc1ccccc1C(F)(F)F,-0.035,-0.5
NC(CSCc1c(F)cccc1Cl)C(=O)O (configuration not stated),10.8,·
S=C1CCc2ccccc2N1Cc1ccccc1,-0.685,-0.3
CCCNC(=O)CN1CCN(c2cc3ccccc3c(Cl)n2)CC1,·,-0.05
C=C1SC(Nc2ccccc2Cl)=NC12CCCCC2,-0.13,·
Nc1nc(-c2cccnc2)nc2c1c(=O)oc1ccccc12,-0.2,1.55
COc1ccc(Cc2noc(-c3cc(-c4ccncc4)nc4ccccc34)n2)cc1OC,0.635,·
CC(C)(C)C1CCc2c(sc3c2C(=O)NC(c2ccco2)N3)C1 (configuration not stated),-1.5,0
CSc1nc(C)c(CCC(=O)OCC(N)=O)c(C)n1,·,-1
Cc1ccccc1CN1CCN(c2ccc(Cl)cc2)CC1,0.5,-0.15
Cc1c(/C(CSCc2cccc(C(F)(F)F)c2)=N\O)sc2ncnn12,0.21,·
CC(=O)Oc1c(C)c(C)c2oc(=O)ccc2c1C,-0.03,-0.15
COc1ccc(N=Nc2cnc(-c3ccncc3)nc2-c2ccccc2)cc1,-0.185,·
Cc1cccc(NC2=NS(=O)(=O)c3ccccc3N2)c1,1.01,0.75
CC(c1cccs1)n1nccc1NC(=O)CCC(=O)O (configuration not stated),·,-0.55

# Single values from the entries so far:
# In AID504770, CCCNC(=O)CN1CCN(c2cc3ccccc3c(Cl)n2)CC1 reads -0.05
# In Ba CapD inh, NC(CSCc1c(F)cccc1Cl)C(=O)O (configuration not stated) reads 10.8
# In Ba CapD inh, COc1ccc(Cc2noc(-c3cc(-c4ccncc4)nc4ccccc34)n2)cc1OC reads 0.635

# Remaining list, next part:
Compound,Ba CapD inh,AID504770
N#Cc1cc2ccc(Br)cc2cc1C#N,0.26,0.85
O=C1CC(n2nc(C(O)c3ccccc3)n(-c3ccccc3)c2=S)C2COC1O2 (configuration not stated),-0.24,0.3
O=C(O)/C=C\C(=O)N1CCN(c2cccc3[nH]ccc23)CC1,-0.515,·
O=C(CSCc1c(Cl)cccc1Cl)N1CCOCC1,0.08,-1.55
COc1cc(/C=C2\SC(=S)N(NC(=O)c3ccc(Br)cc3)C2=O)cc(OC)c1OC,0.76,·
CCOC(=O)/C=C1\SCC(=O)N1Cc1ccc(C(=O)OC)cc1,·,-0.3
Cc1cc(C(F)(F)F)nn1CC(=O)O,0.65,0
COc1ccc(/C=C2\c3ccc(C)cc3-c3nc4ccccc4cc32)cc1,-0.515,·
O=S(=O)(NCCc1nc2ccccc2[nH]1)c1ccccc1,·,0.45
CCN1CCCC1CNC(=O)OCCc1ccccc1Cl (configuration not stated),2.07,·
COc1ccc(C(=O)N2CCC(C(N)=O)CC2)cc1,-0.12,-0.9
Cc1ccc(S(=O)(=O)N(C#N)c2nc(N(C)C)nc(N(C)C)n2)cc1,0.125,-0.4
Cc1cc(OS(=O)(=O)c2ccc(F)c(Cl)c2)n(-c2ccccc2)n1,0.59,·
CCNc1nc(OC(C(F)(F)F)C(F)(F)F)nc(N(c2ccccc2)c2ccccc2)n1,0.435,-0.25
Cn1c(-c2ccccc2)cnc1NCc1ccc(Br)cc1,5.94,0.05
CCOC(=O)C1Cc2c([nH]c3ccccc23)C(C)N1 (configuration not stated),0.725,·
C=CCn1c2nc3ccccc3nc2c2c(=O)n(Cc3ccc4c(c3)OCO4)cnc21,·,0.45
COC(=O)c1ccccc1NC(=O)C1CCN(c2ncnc3c2sc2cccc(F)c23)CC1,0.455,-0.7
Cc1cc(C)c2c(N)c(-c3n[nH]c(=S)n3C)sc2n1,2.64,-0.1
CCCNS(=O)(=O)c1cc(OC)ccc1OC,0.045,0.15

# Next structures
Compound,Ba CapD inh,AID504770
O=C(CN1C(=O)c2ccccc2S1(=O)=O)NC1CCCCC1,-0.49,-0.8
O=C(O)COCC(=O)Nc1ccc(-n2cnnn2)cc1,0.68,1.35
Cc1cc(C)c(-c2cc(N)n[nH]2)cc1C,0.285,-0.75
CS(=O)(=O)NCCc1ccc(C(=O)O)cc1,·,0.35
COc1ccc(-n2cnnn2)cc1,-0.26,-0.9
O=C(/C=C/c1cc2cccc3c2n(c1=O)CC3)NCCc1ccccc1,5.23,·
CCCc1cc(NC(=O)COC(=O)c2ccc(O)cc2O)n(-c2ccccc2)n1,·,-0.25
CC(C)n1c2ccccc2c2nnc(SCC(=O)N3CCCCC3)nc21,-0.635,-0.55
Nc1nc2ccccc2n1CCOc1ccc2ccccc2c1,0.28,0.6
C=C(C)c1nc2ccccc2c(=O)o1,0.5,0.15
O=C(N/N=C/c1c[nH]c2ccc(Br)cc12)C1CC1,·,-0.55
CC1Cc2ccccc2N1C(=O)c1ccc2c(c1)nnn2C (configuration not stated),·,0.2
O=[N+]([O-])c1ccc(N2CCSCC2)cc1O,-0.09,·
OC(CN1CCN(Cc2ccc(Cl)cc2Cl)CC1)Cn1c2ccccc2c2ccccc21 (configuration not stated),1.79,·
CC1(C2CC2)NC(=S)N(c2ccccc2)N1 (configuration not stated),-0.09,·
Cc1cc(Nc2cccc(Cl)c2)nc2ccc(NC(=O)c3ccc(=O)[nH]c3)cc12,15.1,-1.05
COc1cccc(N/C=C/C(=O)c2cccs2)c1,-2.62,1.6
CCOc1ccc(NC(=S)Nc2cc(C)[nH]n2)cc1,1.02,-1.1
COc1ccc2nc(N=NC3=C(O)CC(C)(C)CC3=O)sc2c1,·,-0.25
Fc1ccccc1NC(=S)N/N=C/c1cn(-c2ccccc2)nc1-c1cc2ccccc2o1,·,-0.8

# (listing goes on)
Compound,Ba CapD inh,AID504770
CC(=O)OC1CCC2OC1CCC2OC(C)=O (configuration not stated),-0.505,-0.4
Cc1cc(C)nc(OCC(=O)N(c2ccccc2Cl)C(C)C)n1,-0.515,·
O=C(OCC(=O)N1c2ccccc2Sc2ccccc21)c1cnccn1,·,-0.35
C=COC(=O)c1sc2nc(C)cc(C)c2c1N,26.9,0.35
CC(C)(C)OC(=O)CSc1nnc(-c2cc(Cl)ccc2Cl)n1N,·,2.2
Cc1oc(-c2ccccc2)nc1C(=O)OCC(=O)c1ccc(Cl)cc1,·,-0.4
Cn1c(=S)sc2c(=O)[nH]c(-c3ccc(Cl)cc3)nc21,0.04,-0.15
O=C(Nc1ccc(-c2noc(-c3ccc(Br)o3)n2)cc1)c1cccc(Cl)c1,0.05,·
CC(=O)n1cc(/C=C2\N=C(c3cccc(C)c3)OC2=O)c2cc(Br)ccc21,0.575,·
CC(C)NC(=O)C1CCCN1C(=O)Nc1ccccc1 (configuration not stated),·,1.05
Cn1cccc1C(=O)O,·,0.1
COc1ccccc1/C=N/OCC(=O)N(C)c1ccccc1,·,0.15
CC1(C)CC(=O)C2=C(C1)c1c(ccc3ccccc13)NC2c1ccc(-c2ccc(Cl)cc2)o1 (configuration not stated),2.33,·
CCN(CC)c1c(S(=O)(=O)c2ccccc2)cnc2cc(OC)c(OC)cc12,·,-0.6
CCc1ccc(NC(=O)C(C)OC(=O)c2ccc3ccccc3n2)cc1 (configuration not stated),0.19,0.75
O=C(/C=C/c1ccc(F)cc1)NC(Cc1ccccc1)C(=O)O (configuration not stated),0.15,0
CC(=O)NC(c1ccccc1)c1ccccc1,0.34,-0.05
COC(=O)c1cc(C=C(C#N)C#N)cn1C,-3.1,-0.45
NC(=S)c1nc(-c2ccccc2)oc1N,12.2,-1.25
O=C(Nc1c[nH]c2ccccc2c1=O)NC1CCCC1,105,-0.9

# The listing continues:
Compound,Ba CapD inh,AID504770
Cn1c(C(C#N)C(=O)c2cc(-c3cccnc3)nc3ccccc23)nc2ccccc21 (configuration not stated),·,1.15
COC(=O)c1cc(CSc2nc3ccccc3[nH]2)ccc1O,·,1.15
N=C1c2ccccc2CN1NC(=O)CC12CC3CC(CC(C3)C1)C2,·,0.15
O=c1c2ccccc2nnn1CSc1nc2cc(Cl)ccc2c(=O)n1C1CCCC1,·,0.15
Clc1cccc(C2NCCc3[nH]cnc32)c1 (configuration not stated),0.165,-0.75
COC(=O)c1ccc(N2C(=O)CSC2c2cccc(Br)c2)cc1 (configuration not stated),0.015,·
CCCNC(=O)c1nnc(Cc2ccc3c(c2)OCO3)o1,0.845,-0.55
CN(Cc1ccccc1)C(=O)Cn1ncc2c([nH]c3ccccc32)c1=O,2.35,0.1
CSc1cccc(NCN2C(=O)CCC2=O)c1,-0.7,·
C=CCSc1n[nH]c(C(C)(C)C)n1,9.78,0.7
CCCCOP(=O)(OCCCC)C(Nc1ccccc1C(=O)O)c1ccccc1O (configuration not stated),19.6,·
Cn1c(=O)cc(SCC(=O)NCCCN2CCN(c3ccccc3F)CC2)c2ccccc21,0.485,-0.2
O=C(Nc1ncn[nH]1)C1CCN(S(=O)(=O)c2ccc(Cl)cc2)CC1,·,0.2
O=C(Nc1ccc(Cl)c(C(F)(F)F)c1)c1nccnc1CO,-0.38,0.1
CCc1nnc(NC(=O)CSc2nc(N)nc(SC)c2C#N)s1,-0.985,·
O=C(NCc1ccccc1)c1cc2c(ccc3ccccc32)oc1=O,i,-0.85
Cc1cc(C(=O)Nc2cccc3c2CCCC3)n[nH]1,-0.26,-0.5
CC1CCCC(NS(=O)(=O)CC23CCC(CC2=O)C3(C)C)C1C (configuration not stated),·,1.6
COc1cc2c(cc1OC)CN(C(=O)CCNC(=O)c1ccccc1Cl)CC2,·,-0.05
CCCC(=O)NCc1nc2ccccc2[nH]1,15.7,1.3

# Further results follow.
Compound,Ba CapD inh,AID504770
C/C(=N\NC(=O)CCc1ccc(S(=O)(=O)N2CCOCC2)cc1)c1ccc2c(c1)OCCO2,·,1.15
Cc1nc2cc(N)ccc2n1-c1ccccc1,1.73,1.1
Cc1ccc(-c2nc(C(F)(F)F)cc(=O)[nH]2)cc1,0.1,-0.7
COc1ccc(COn2c(-c3ccc(Cl)cc3)nc3ccc(Cl)cc32)cc1,-0.1,·
O=C(Nc1ccc2c(c1)S(=O)(=O)c1cc(NC(=O)c3ccccc3[N+](=O)[O-])ccc1-2)c1ccccc1[N+](=O)[O-],0.04,·
Cc1ccc(Sc2cc(Cl)c3noc4c3c2C(=O)c2ccccc2-4)cc1,0.07,·
COc1ccc2c(c1)c(CC(=O)NCc1ccco1)c(C)n2C(=O)c1ccc(Cl)cc1,-0.035,0.95
c1cnc2c(CN3CCOCC3)cccc2c1,0.235,0.4
CCCNS(=O)(=O)c1ccc2c(c1)oc(=O)n2CC(=O)OCC,13.3,-0.7
Cc1cc(C)nc(N2CCN(C(=O)C(c3ccccc3)c3ccccc3)CC2)n1,0.265,·
COC(=O)c1cc(=O)n(C)[nH]1,0.78,0.5
CC1(C)CC(=O)C2=C(C1)NC1=C(C(=O)CC(C)(C)C1)C2c1ccc(I)cc1,11,·
O=C1Cc2cc(S(=O)(=O)NC3CCCCC3)ccc2N1,0.505,0.05
O=C1Nc2c(S(=O)(=O)Oc3ccccc3)cc(S(=O)(=O)Oc3ccccc3)c3cccc1c23,1.64,·
O=C(Nc1cc(Cl)ccc1Oc1ccc2ccccc2c1Br)c1cc(Br)cc(Br)c1O,2.58,·
CCOC(=O)N1CCC2(CC1)NCCc1c2[nH]c2ccccc12,0.75,-0.2
C=CCn1c(=S)[nH]c2cc(C(=O)N3CCN(c4ccccc4OC)CC3)ccc2c1=O,·,0.4
CCc1nc2ccccc2n1CC(O)COc1cc(OC)cc(OC)c1 (configuration not stated),-0.095,-0.4
O=C(OCC1c2ccccc2-c2ccccc21)ON1C(=O)CCC1=O,-0.44,-0.95
Cc1cc(C)cc(NC(=O)C(Cc2c[nH]c3ccccc23)NC(=O)Oc2ccccc2)c1 (configuration not stated),-0.4,·

# 2 entries drawn at random from the list so far:
Compound,Ba CapD inh,AID504770
CC1(C)CC(=O)C2=C(C1)NC1=C(C(=O)CC(C)(C)C1)C2c1ccc(I)cc1,11,·
O=C(OCC1c2ccccc2-c2ccccc21)ON1C(=O)CCC1=O,-0.44,-0.95

# Later entries.
Compound,Ba CapD inh,AID504770
Cc1cc(=O)[nH]c(SCC(=O)NC2CCCCC2)n1,·,-1.05
O=c1[nH]c2ccccc2c(=O)n1CCNCc1ccccc1,4.63,1.05
O=C(Nc1nc2ccccc2s1)c1cc(=O)c2ccccc2o1,-0.84,1.5
CCOC(=O)C1CCN(C(=O)c2sc3nc(-c4ccccc4)cn3c2C)CC1,-1.23,2.1
CN(CCC#N)S(=O)(=O)c1cc(Br)ccc1Br,·,1.35
Cc1[nH]n(-c2ccc(Cl)cc2)c(=O)c1C(=O)c1ccccc1,·,-0.5
CSc1nnc(-c2cnccc2C(F)(F)F)n1-c1ccc(Cl)cc1,0.05,0.15
OC1CCN(CCc2ccccc2)CC1,0.44,0.3
COc1ccc(NC(=O)C(NC(=O)c2ccccc2)C(C)C)cn1 (configuration not stated),·,-0.25
O=C(NC1CCCCCC1)C1C2C=CC3(CN(Cc4cccnc4)C(=O)C13)O2 (configuration not stated),2.05,-0.2
Clc1ccccc1Cn1nnc2c(N3CCCCC3)ncnc21,0.31,1.05
COc1ccc(-c2noc(N(CCC#N)c3ccccc3)n2)cc1,-0.475,-1
NC1=Nc2cc(=O)[nH]c3nnc(n23)SC1,·,-0.45

# Compound activity as filed in PubChem.
